Assay outcomes as filed in PubChem.
VDR inh = blocks the human vitamin D receptor; P11473; VDR-SRC2-3 peptide fluorescence polarization, 2 h; Potency, µM, without a hit: max response, negative = inhibition, actives largely listed as inhibitors; hit rate 0.93% among 400,000; active = well fitted inhibition curve with a large enough effect; inconclusive = small, poorly fitted or top-dose-only effect, or another doubt; inactive = no such curve, though single readings can be large or run the other way; note: series mostly up to about 120 µM
Target sequence (P11473 whole entry, looked up): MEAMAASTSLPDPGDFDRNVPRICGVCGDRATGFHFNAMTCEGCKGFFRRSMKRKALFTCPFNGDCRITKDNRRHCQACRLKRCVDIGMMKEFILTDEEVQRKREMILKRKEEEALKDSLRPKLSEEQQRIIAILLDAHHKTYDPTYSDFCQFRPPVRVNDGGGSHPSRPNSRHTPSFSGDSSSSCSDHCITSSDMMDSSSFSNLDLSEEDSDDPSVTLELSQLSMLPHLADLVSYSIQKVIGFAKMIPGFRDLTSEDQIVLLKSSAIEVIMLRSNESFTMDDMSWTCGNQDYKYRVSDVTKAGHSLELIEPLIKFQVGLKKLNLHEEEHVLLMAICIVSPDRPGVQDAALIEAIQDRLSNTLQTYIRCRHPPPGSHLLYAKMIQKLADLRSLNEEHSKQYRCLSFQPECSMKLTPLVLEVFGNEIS
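Two reagent solutions held at 4 deg C in the dark were dispensed, compounds pinned at 23 nl, and the mixture incubated 2 h at room temperature. Read-out: fluorescence polarization of VDR–SRC2-3 peptide binding.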
* marks the source's active call; other numbers are inactive results; ? = inconclusive; & = joins results of further samples; [ ] = remark or other dose. % is set by controls: 0 for no effect and ±100 for the full control effect; potency is the fitted concentration of half-maximal effect. Not all compounds are listed (hit frequency here may not be typical).

The first five records (preview)
VDR inh	smiles
21%	CC(=O)C1=C(C)Nc2ncnn2C1c1cccc(O)c1 (stereo unspecified)
10%	CCO[C@@H]1OC(C(=O)Nc2ccccc2)=C[C@H](C2CC2)[C@H]1CCCO
79µM*	O=C(O)C(Cc1ccccc1)N1C(=O)/C(=C/c2cccs2)SC1=S (stereo unspecified)
21%	O=C(C1=C[C@@H](c2ccc3c(c2)OCO3)C[C@@H](OCCCCO)O1)N1CCOCC1
-21%	Cc1nc(C(=O)NC2CCOCC2)sc1C1(C)CC(c2ccccc2)=NO1 (stereo unspecified)

The listing, from the first entry:
VDR inh	smiles
21%	CC(=O)C1=C(C)Nc2ncnn2C1c1cccc(O)c1 (stereo unspecified)
10%	CCO[C@@H]1OC(C(=O)Nc2ccccc2)=C[C@H](C2CC2)[C@H]1CCCO
79µM*	O=C(O)C(Cc1ccccc1)N1C(=O)/C(=C/c2cccs2)SC1=S (stereo unspecified)
21%	O=C(C1=C[C@@H](c2ccc3c(c2)OCO3)C[C@@H](OCCCCO)O1)N1CCOCC1
-21%	Cc1nc(C(=O)NC2CCOCC2)sc1C1(C)CC(c2ccccc2)=NO1 (stereo unspecified)
7%	CC1=Nc2ccccc2N=C(NC(=O)CN2CCN(c3ccc(F)cc3)CC2)C1c1ccccc1 (stereo unspecified)
3%	Cc1cc(C)cc(-n2c(C)nc3cc(C(=O)NCc4ccccc4Cl)ccc32)c1
20%	CCOC(=O)C(CC(=O)c1ccccc1)CC(=O)c1ccccc1
7%	O=C(c1ccncc1)N1CCN(C(=O)c2cccc3ccccc23)CC1
11%	C=CCn1c(SCC(=O)Nc2ncc(Cc3cc(Cl)ccc3Cl)s2)nnc1-c1ccncc1
-28%	Cc1ccc(S(=O)(=O)N2CCCN(c3nc(-c4cccs4)nc4ccccc34)CC2)cc1
0%	Cc1cccc(C)c1NC(=O)COC(=O)c1ccccc1O
-6%	COc1ccccc1S(=O)(=O)Nc1cccc(S(=O)(=O)N2CCCC2)c1
1%	CCc1cccc(C)c1NC(=O)COC(=O)CC1CCCC1
-19%	COc1ccc2oc(-c3ccc(C)c(NC(=O)COc4cc(C)cc(C)c4)c3)nc2c1
-18%	Cc1ccc(SCCOCCN2CCc3ccccc3C2)cc1
3%	C=C(C)Cn1c(Sc2nc3ccccc3[nH]2)nc2c1c(=O)[nH]c(=O)n2C
-5%	CC(C)(C)NC(=O)C(c1ccccc1)N(C(=O)CNC(=O)c1cccs1)c1cccnc1 (stereo unspecified)
18%	CCC(=O)Nc1ccc(NC(=O)CN2CCCC(C)C2)c(Cl)c1 (stereo unspecified)
-2%	Cc1cccc(OCc2occc2C(=O)Nc2cccc(-n3cnnn3)c2)c1
3%	CCOc1ccccc1CNC(=O)CN1C(=O)c2cccnc2Oc2ccc(C)cc21
-12%	O=C(Cc1ccc(NC(=O)C2CCCN(C(=O)C3CCCCC3)C2)cc1)Nc1cccc(C(=O)N2CCCC2)c1 (stereo unspecified)
9%	CCc1cccc2c(C(=O)CCl)c[nH]c12
-28%	Cc1sc2nc(CC(=O)N3CCCC3)[nH]c(=O)c2c1C
-1%	Nc1c(Cl)cc(C2=NCCn3c2c2ccc(C(F)(F)F)cc2[n+]3[O-])cc1Cl
-13%	CCc1ccc(C(C(=O)NC(C)(C)CC)N(Cc2ccco2)C(=O)Cn2nnc3ccccc32)cc1 (stereo unspecified)
?	CC1=NN(C(=O)Cn2nc([N+](=O)[O-])c(Br)c2C)C(O)(C(F)(F)F)C1 (stereo unspecified)
6%	COc1ccc(NC(=O)c2sc3nc(C)c(C(=O)Nc4ccc(C)cc4C)c(-c4ccccc4Cl)c3c2N)cc1
3%	CCC(C)c1ccccc1NC(=O)CN(CC)CC(=O)Nc1ccc2c(c1)OCCO2 (stereo unspecified)
-9%	O=c1[nH]c(CN(CCO)CCO)nc2c1C1(CCCCC1)Cc1ccccc1-2
-1%	CC(C)(C)CN1C(=O)C(=O)NC[C@@H]1CCCCN
-22%	COc1cccc2c(=O)c3ccccc3oc12
-19%	CCN(CC)C(=O)COc1ccc(/C(C)=N/Nc2ncc(Cl)cc2Cl)cc1
-6%	CSc1ccccc1OCc1cc(C(=O)NCCC2CCCCO2)no1 (stereo unspecified)
8%	CC(=O)c1c(N2CCN(C)CC2)nc(=S)n(-c2cc(C)ccc2C)c1C
15%	CN(C(=O)c1cccc(NC(=O)Cc2ccc(NC(=O)C3CCCN(C(=O)C4CC4)C3)cc2)c1)C1CCC1 (stereo unspecified)
22µM*	Oc1ccccc1N1CCN(c2ncnc3sc(-c4ccccc4)cc23)CC1
13%	Cc1cccc(NC(=O)Nc2cccnc2)c1C
-7%	Cc1c(NC(=O)COc2c(F)c(F)c(F)c(F)c2F)c(=O)n(-c2ccccc2)n1C
-6%	N#C/C(=C\c1ccccc1)c1nc(-c2cc3cc(Br)ccc3oc2=O)cs1
1%	CC12CCC(C(=O)Nc3ccccc3)(C/C1=N\O)C2(C)C (stereo unspecified)
11%	O=[N+]([O-])c1ccc(NC2CCCC2)cc1
-2%	Cc1ccc(CN2CCN(Cc3nc(C(C)C)cs3)CC2CCO)cc1 (stereo unspecified)
-15%	CCN1CC=C2C(C1)C(c1ccc(Cl)s1)C(C#N)=C(N)C2(C#N)C#N (stereo unspecified)
4%	Cc1cc(NC(=O)COC(=O)COc2ccc3c4c(c(=O)oc3c2)CCC4)no1

Rewritten as tab-separated lines: 2 of the compounds above.
Structure	VDR inh
CC12CCC(C(=O)Nc3ccccc3)(C/C1=N\O)C2(C)C (stereo unspecified)	1%
CCN(CC)C(=O)COc1ccc(/C(C)=N/Nc2ncc(Cl)cc2Cl)cc1	-19%

5 compounds drawn at random from those above, as already listed:
VDR inh	smiles
-15%	CCN1CC=C2C(C1)C(c1ccc(Cl)s1)C(C#N)=C(N)C2(C#N)C#N (stereo unspecified)
4%	Cc1cc(NC(=O)COC(=O)COc2ccc3c4c(c(=O)oc3c2)CCC4)no1
11%	O=[N+]([O-])c1ccc(NC2CCCC2)cc1
22µM*	Oc1ccccc1N1CCN(c2ncnc3sc(-c4ccccc4)cc23)CC1
-2%	Cc1ccc(CN2CCN(Cc3nc(C(C)C)cs3)CC2CCO)cc1 (stereo unspecified)

(list continues)
VDR inh	smiles
?	CC(C)(C)c1ccc(C(=S)N2CCN(c3ccccc3)CC2)cc1
-9%	NC(=O)C1CCN(CCS(=O)(=O)c2ccc(Cl)cc2)CC1
18%	COc1ccccc1NC(=O)C1=C(C)Nc2nc(SCc3cc(C)ccc3C)nn2C1c1ccccc1 (stereo unspecified)
-1%	COc1ccc(C2CC(c3ccccc3)=NN2C(=O)CN2N=NC3C(=O)N(c4cccc(F)c4)C(=O)C32)cc1 (stereo unspecified)
2%	CC(C)N(C)C(=O)CCc1nnc(CCc2c[nH]c3ccccc23)o1
-2%	COc1ccc(C(=O)N2CCN=C2SC)cc1OC
-13%	CC1C2C(C)N(C)C(=O)N(C)C2N(C)C(=O)N1C (stereo unspecified)
?	O=C1C(c2c(O)[nH]c3ccccc23)=Nc2ccccc21
8%	NC(=O)CN1C(=O)NC2(CCCc3ccccc32)C1=O (stereo unspecified)
5%	Cc1cccc(CNC(=O)c2ccc(N3Cc4ccccc4Oc4ncccc43)s2)c1
5%	CC1CN(S(=O)(=O)c2ccc(C(=O)N3c4ccccc4CC3C)cc2)CC(C)O1 (stereo unspecified)
4%	O=C(/C=C/c1ccco1)Nc1cccc(S(=O)(=O)N2CCOCC2)c1
-14%	Nn1c(SCC(=O)Nc2ccc(OC(F)F)cc2)nnc1-c1ccco1
11%	CCOc1ccc(NC(=O)CCC(=O)NNC(=O)COc2ccc(C)cc2)cc1
-10%	COc1ccc(C2(C(=O)Nc3ccccc3)CCOCC2)cc1
1%	CCOC(=O)c1cccc(NC(=O)Nc2ccc3c(c2)N(C)C(=O)c2ccccc2S3)c1
-8%	O=C(COc1ccc(Cl)cc1)N/N=C/CCc1ccccc1
-21%	COc1cccc(-c2nc3ccccc3c(=O)o2)c1
0%	Cc1cc(Cl)ccc1OCC(=O)NNC(=O)C1CCCO1 (stereo unspecified)
79µM*	CC(C)(C)c1nnc(NS(=O)(=O)c2ccc(F)cc2)s1
-10%	COCCCNC(=O)c1cccc(NC(=O)c2ccccc2)c1
-1%	O=C(N/N=C/c1ccoc1)c1cccc(OC(F)(F)C(F)F)c1
-12%	COc1ccc(CN(C)C2c3ccccc3-c3ccccc32)cc1
-18%	COc1ccccc1-c1ccc(/C=C2\C=CC(=O)O2)o1
-20%	Cc1cccc(-c2noc(-c3ccoc3C)n2)c1
?	O=C(c1ccco1)N1CCN(c2ccc([N+](=O)[O-])cc2Cl)CC1
2%	Cc1cc(-c2ccc(C)c(S(=O)(=O)Nc3ccc(C)c(N(C)C)c3)c2)on1
2%	OCCC1CN(Cc2ccc3c(c2)CCO3)CCN1C1CCCC1 (stereo unspecified)
-13%	O=C(Nc1cccc(Br)c1)c1cc(S(=O)(=O)N2CCOCC2)cs1
-4%	Cc1onc(C(=O)Nc2cccnc2Cl)c1[N+](=O)[O-]
-8%	O=C(CCCNC(=O)c1ccc(Cl)cc1)Nc1ncccc1O
-7%	Cc1c[nH]c2cccc(OCC(CNC(C)(C)C)OC(=O)c3ccccc3)c12 (stereo unspecified)
5%	CCCOC1CCCN(C(=O)c2cc(COc3cncc(Cl)c3)on2)C1 (stereo unspecified)
0%	CCC(C)Nc1nc(N)c([N+](=O)[O-])c(NCCO)n1 (stereo unspecified)
-18%	COc1ccc(CCNc2nc3cc(OC)c(OC)cc3c3nc(-c4ccccc4)nn23)cc1OC
0%	COc1ccc(NC(=O)CSc2cn(CCNC(=O)c3c(F)cccc3F)c3ccccc23)cc1
-6%	CCOC(=O)c1sc2ncn(/N=C/c3ccc(O)c(OC)c3)c(=O)c2c1C
9%	COc1ccc(C2=NN(C(C)=O)CC2c2cccc([N+](=O)[O-])c2)cc1 (stereo unspecified)
?	O=C(/C=C/c1ccc(Cl)cc1)Nc1ccc(N2CCOCC2)cc1
4%	CC(=O)c1ccc(Nc2nc(NCCO)nc(OC(C(F)(F)F)C(F)(F)F)n2)cc1
-8%	COc1ccc(NC(=O)Nc2ccc3c(c2)CCC3)cc1OC
-3%	CCOc1ccc2nc(SCC(=O)NC3CCCc4ccccc43)sc2c1 (stereo unspecified)
0%	O=C1CN(C(=O)COc2c(F)c(F)cc(F)c2F)c2ccccc2N1
-8%	O=C(NC1CCCCCC1)C1CC(=O)N(Cc2ccccc2)C1 (stereo unspecified)
9%	Cn1c(SCc2ccccc2Br)nc2ccccc2c1=O
0%	CCN(CC)C(=O)C1CCN(Cc2ccc(OCc3ccccc3)c(OC)c2)CC1
-5%	COC(=O)C1C2CCC(C2)C1C(=O)OCC(=O)c1ccccc1 (stereo unspecified)
-2%	O=c1[nH]c2cc3c(cc2cc1C(c1nnnn1C1CCCC1)N1CCSCC1)OCCO3 (stereo unspecified)
-9%	CC(C)Oc1ccc(CNC(=O)CCCN2C(=O)C(c3ccccc3)Oc3cccnc32)cc1 (stereo unspecified)
0%	Cn1c(SCC(O)c2ccccc2)nnc1-c1ccc2ccccc2c1 (stereo unspecified)
6%	COc1ccccc1N(C(=O)NCc1ccccc1)C1=NCC(C)S1 (stereo unspecified)
-10%	Cc1nn(-c2ccccc2)c(Cl)c1/C=N/O
?	COc1ccc(-n2c(Cc3cccn3C)nnc2SCC(=O)Nc2ccc(C)cc2C)cc1
4%	Cc1cccc(N2CCN(C(=O)C3CC(=O)N(C4CCCC4)C3)CC2)c1C (stereo unspecified)
-2%	COc1ccc(CNC(=O)C2=Cc3cccc(OC)c3OC2)cc1OC
-5%	COc1ccc(CN(C(=O)Nc2cccc(OC)c2)C2CCN(C(C)=O)CC2)cc1
-11%	CCOc1ccc(NC(=O)CC2C(=O)N(c3ccc(OC)cc3)C(=O)N2CCC2=CCCCC2)cc1 (stereo unspecified)
-7%	Cc1csc(SCC(=O)Nc2oc(C)c3c(C)n[nH]c(=O)c23)n1
-12%	O=C(CCNS(=O)(=O)c1ccc(Cl)cc1)N1CCN(Cc2ccccc2)CC1
-28%	CN(CCc1ccccn1)C(=O)CCNC(=O)Cn1cnc2ccccc2c1=O

The listing continues:
VDR inh	smiles
0%	Cc1ccnc(NCc2c(O)ccc3ccccc23)c1
21%	Cc1ccc(S(=O)(=O)N2CC3CCCC2C3)cc1 (stereo unspecified)
16%	CCn1nc(NC(=O)c2cccnc2)c2cc3ccccc3nc21
-7%&-3%&-22%	COC(=O)C1=C(C)NC(C)=C([N+](=O)[O-])C1c1ccccc1C(F)(F)F (stereo unspecified)
-17%	COc1ccc(S(=O)(=O)N2CCOCC2)cc1C(=O)NC1CCCCC1
39%[activator]	CCCc1cc(=O)oc2cc(OCC(=O)N(C)C)c(Cl)cc12
-6%	COc1ccccc1CNC(=O)C/C(C)=N/NC(=O)Cc1ccc(OC)c(OC)c1
-1%	CN(C)S(=O)(=O)c1cccc(C(=O)OCC(=O)NCc2ccc3c(c2)OCO3)c1
-14%	COc1nc(OC)nc(N2CCC(C(=O)NCC3CCCCC3)CC2)n1
-27%	Nc1c(N(CCC2=CCCCC2)C(=O)COc2ccc([N+](=O)[O-])cc2)c(=O)[nH]c(=O)n1Cc1ccccc1
1%	CCN(Cc1ccccc1)S(=O)(=O)c1ccc(C(=O)N(CCCN(C)C)c2nc3cc4c(cc3s2)OCCO4)cc1
1%	CC1CCN(C(=O)CSc2nnc(-c3cc4ccccc4cc3O)n2Cc2ccco2)CC1
-4%	CN(C)C=NC(=O)c1cn(-c2ccc(F)cc2)c(=O)c2ccccc12
2%	COc1cccc(C(=O)NNC(=O)c2cccnc2)c1
5%	CC1CCc2[nH]c3ccc(C(=O)N(C)CC(=O)Nc4ccc(F)cc4)cc3c2C1 (stereo unspecified)
